Source: PubChem BioAssay
Vif-A3F inh – blocks the Vif interaction with APOBEC3F; Potency, µM (series often up to 46.1 µM), for the others: top-dose activity, negative = active; 390,000 compounds, 0.2% hits; HeLa A3F-eYFP + Vif (tagged APOBEC3F with the HIV-1 protein that degrades it), YFP fluorescence increase; AID 602313; further: potency means the concentration at half of the fitted maximal effect; % of control where 0% means no effect; nearly all actives have a fitted effect of over 65% in size
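HeLa cells stably expressing Vif plus C-terminally eYFP-tagged A3F were seeded, incubated overnight at 37 deg C, dosed with compound, incubated overnight again at 37 deg C. Yellow fluorescence (Ex 488/Em 500-530) reported blocked Vif-mediated A3F-eYFP degradation.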
Vif-APOBEC3G blk – Vif-A3G binding inhibition. AID 602310. Potency, µM (top dose mostly 46.1 µM), without a hit: at the highest dose activity, negative = active, usual class: inhibitors. Q9HC16. 410,000 compounds, 0.076% hits. HeLa A3G-eYFP + Vif (tagged APOBEC3G with the HIV-1 protein that degrades it), YFP fluorescence, overnight;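 further: potency means the concentration at half of the fitted maximal effect; on the % scale 0 is the no-effect control and ±100 the full control effect; nearly all actives have a fitted effect of over 60% in size; hits raise eYFP signal because A3G escapes Vif-driven loss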
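HeLa cells stably expressing Vif and C-terminally eYFP-tagged A3G, seeded overnight at 37 deg C, then exposed to compound by pintool overnight at 37 deg C. Rise in yellow fluorescence (Ex 488/Em 500-530, Acumen) marks blocked Vif-driven A3G degradation.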
TrxR1 substrate – rat thioredoxin reductase 1 substrate activity | O89049 | purified TrxR1 substrate turnover, NADPH consumption readout | Potency, µM (doses to about 114 µM), for inactives: at the highest dose activity change, negative = substrate turnover | 390,000 compounds, 0.01% hits; further: potency means the concentration at half of the fitted maximal effect; on the % scale 0 is the no-effect control and ±100 the full control effect; nearly all actives have a fitted effect of over 50% in size
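Rat TrxR1, dispensed at 90 nM, was prereduced with 400 uM NADPH (final) for 5 min at ~22 deg C, then incubated with compound 15 min before 400 uM selenite. A first-read NADPH fluorescence drop versus no-compound background flagged substrates.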
PI4K2A inh – PI4K2A (human) kinase inhibition | 420,000 compounds, 0.13% hits | purified PI4K2A, ADP-Glo luminescence, 1 h; active compounds read low | Q9BTU6 | activity change, negative = inhibition, % at 76.9 µM; in the data active means activity change below about -50%; inconclusive means mostly about -30% to -49%;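 further: -100% = wells without enzyme as full effect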
Target sequence (Q9BTU6 whole entry, looked up): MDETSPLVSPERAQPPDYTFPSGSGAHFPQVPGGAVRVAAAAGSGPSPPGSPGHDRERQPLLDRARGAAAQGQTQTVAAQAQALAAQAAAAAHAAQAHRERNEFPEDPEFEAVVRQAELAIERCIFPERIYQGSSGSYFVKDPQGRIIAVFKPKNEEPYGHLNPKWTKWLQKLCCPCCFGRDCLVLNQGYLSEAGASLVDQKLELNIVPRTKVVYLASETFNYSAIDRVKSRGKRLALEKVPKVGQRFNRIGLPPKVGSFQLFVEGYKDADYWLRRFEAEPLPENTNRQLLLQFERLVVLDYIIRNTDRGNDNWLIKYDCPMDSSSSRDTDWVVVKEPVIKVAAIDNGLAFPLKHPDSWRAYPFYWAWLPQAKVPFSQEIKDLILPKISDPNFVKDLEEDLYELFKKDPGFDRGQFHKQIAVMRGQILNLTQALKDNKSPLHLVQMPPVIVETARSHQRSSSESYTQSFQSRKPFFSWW
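Compounds are screened against recombinant PI4K2A using PI as substrate and ATP, the latter dispensed at 300 microM. Reactions run one hour at ambient temperature before ADP-Glo detection; full inhibition defined by wells lacking enzyme.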
mIDH1 inhibitor – inhibitors of human mutant IDH1 R132H | AID 602179 | 390,000 compounds, 0.093% hits | IDH1-R132H enzyme, NADPH consumption, diaphorase/resazurin fluorescence | O75874 | Potency, µM (doses to about 76.6 µM), inactives show at the highest dose activity change, negative = inhibition, actives largely listed as inhibitors; further: potency means the concentration at half of the fitted maximal effect; on the % scale 0 is the no-effect control and ±100 the full control effect; nearly all actives have a fitted effect of over 65% in size
Target sequence (O75874 whole entry R132H, stated change not applied): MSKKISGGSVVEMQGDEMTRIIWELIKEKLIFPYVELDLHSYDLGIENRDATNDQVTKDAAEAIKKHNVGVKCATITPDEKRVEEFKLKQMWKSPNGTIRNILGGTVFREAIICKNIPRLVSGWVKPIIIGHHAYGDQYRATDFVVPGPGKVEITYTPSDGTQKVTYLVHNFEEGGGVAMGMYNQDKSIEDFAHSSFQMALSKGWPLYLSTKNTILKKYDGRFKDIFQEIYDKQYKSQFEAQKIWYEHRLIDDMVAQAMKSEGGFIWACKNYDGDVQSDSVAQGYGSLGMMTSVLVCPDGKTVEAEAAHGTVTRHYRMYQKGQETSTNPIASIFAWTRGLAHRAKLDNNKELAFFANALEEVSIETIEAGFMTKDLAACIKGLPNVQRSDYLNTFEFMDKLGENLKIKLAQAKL
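IDH1-R132H (0.5 ug/mL) preincubated 30 min with compound, then NADPH (0.016 mM) and alpha-KG (2 mM) added; 80 min at RT, pH 7.5. Remaining NADPH coupled via diaphorase/resazurin to fluorescence (540/590 nm); concentration-response curves normalized to no-enzyme control.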
GRP78 ERSR act – inducers of ER stress response in human glioma cells; U87-MG GRP78 promoter luciferase reporter, 16 h; Potency, µM, without a hit: at the highest dose activation, usual class: activators; 420,000 compounds, 0.02% hits; further: potency means the concentration at half of the fitted maximal effect; series mostly up to about 76 µM; % of control where 0% means no effect; nearly all actives have a fitted effect of over 35% in size
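ERSR induction read as luciferase luminescence (Bright-Glo, 10 min at room temperature) in stably transfected human U87-MG glioma cells exposed to compounds for 16 h, using GRP78 as sensor.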
LDHA inh – LDHA (human) enzyme inhibition | P00338 | purified LDHA, NADH/diaphorase-resazurin fluorescence; active compounds read low | activity change, % (values are at about 110 or 230 µM) | 480,000 compounds, 0.15% hits; in the data active means activity change below about -30%; inconclusive means mostly about -25% to -30%;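 further: plate controls were DMSO wells for no effect and wells without enzyme for full effect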
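Remaining NADH was detected by diaphorase (0.133 mg/mL) converting 37 µM resazurin to fluorescent resorufin, read at 0 and 20 minutes. The preceding 5-minute room-temperature reaction used 2 nM LDHA, 0.2 mM sodium pyruvate and 0.06 mM NADH at pH 7.4.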
USP1-UAF1 inh – blocks the human USP1/UAF1 deubiquitinase complex. O94782. recombinant USP1/UAF1, Ub-Rhodamine cleavage fluorescence. Potency, µM (series often up to 57.1 µM), inactives show at the highest dose activity change, negative = inhibition, actives largely listed as inhibitors. 390,000 compounds, 0.23% hits; further: potency means the concentration at half of the fitted maximal effect; on the % scale 0 is the no-effect control and ±100 the full control effect; nearly all actives have a fitted effect of over 60% in size; inactives centre near -12
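High-throughput fluorogenic screen: 1nM USP1/UAF1 complex, Ub-Rho substrate 150nM final, 50mM HEPES pH 7.8 with 0.5mM EDTA, 0.1 mg/ml BSA, 1mM TCEP and 0.01% Tween-20.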
* marks the source's active call; other numbers are inactive results; ? = inconclusive; [ ] = remark or other dose. Unless noted, the call rests on the fitted dose curve; in most records, active means well fitted curve in the direction sought with a large enough effect; inconclusive means small, poorly fitted or top-dose-only effect, or another doubt; inactive means no such curve, though single readings can be large; an effect the other way counts as inactive or inconclusive. Not all compounds are listed; count on the stated rates, not on these rows.

SMILES	Vif-A3F inh	Vif-APOBEC3G blk	TrxR1 substrate	PI4K2A inh	mIDH1 inhibitor	GRP78 ERSR act	LDHA inh	USP1-UAF1 inh
CCOc1ccc(/C(O)=C2/C(=O)C(=O)N(c3ccccn3)C2c2ccc(C)cc2)c(C)c1 (stereo unspecified)	5%	3%	-15%	-2	4%	-2%	-7	-4%
CC(NS(=O)(=O)c1ccc(OCC(=O)N2CCOCC2)c(Cl)c1)c1ccccc1 (stereo unspecified)	-7%	1%	8%	-8	5%	-6%	-1	-18%
c1cncc(CNc2cccc(-c3nc4ccccc4[nH]3)c2)c1	-28%	-4%	21%[57.1 µM]	1	9%	5%	-8	-15%
CCCN(CCC)CCSc1nc(O)c(C(C)C)c(=O)[nH]1	-1%	4%	-8%	0	3%	-1%	2	-28%
O=C(CSc1ncnc2ccccc12)Nc1cccc(S(=O)(=O)N2CCCC2)c1	0%	2%	-5%[57.1 µM]	0	-9%	-2%	-19	-14%
N#Cc1c(N)nc(Sc2ccc(Cl)cc2)c(C#N)c1-c1ccccc1Cl	-23%	-45%	-24%[57.1 µM]	0	-8%	-4%	0	-9%
NS(=O)(=O)c1ccc(CCNC(=O)c2cc(-c3ccccn3)nc3ccc(Br)cc23)cc1	-6%	-15%	9%	-25	6%	-8%	-1	-14%
Cc1cc(NC(=O)CSc2ncc(C(=O)Nc3ccc(Cl)cc3)c(=O)n2C)no1	4%	-5%	2%[57.1 µM]	-1	-22%	0%	-10	-32%
Cc1cc(=O)n2nc(N3CCCC3C(=O)Nc3cccc(Cl)c3C)sc2n1 (stereo unspecified)	-3%	-8%	6%[57.1 µM]	-1	11%	-1%	2	-16%
CCOC(=O)N1CCN(C(=O)c2cc(-c3ccc(OCC)cc3)nc3ccccc23)CC1	-4%	?	104%[activator]	5	-5%	3%	-13	-12%
O=C(CSc1nccn1Cc1ccccc1)NCc1ccccc1Cl	4%	-6%	-1%[57.1 µM]	7	6%	-5%	4	-29%
CC(C)c1c(O)nc(SCCN(C)C)[nH]c1=O	-4%	1%	-6%	1	16%	-3%	-5	-24%
COC(=O)c1sc(N2C(=O)C(O)=C(C(=O)c3ccc(C)o3)C2c2ccc(OC)c(OC)c2)nc1C (stereo unspecified)	-2%	-9%	-10%	-3	7%	-3%	2	-10%
Cc1cc(Nc2ccc(C)c(Cl)c2)n2nc(-c3ccccc3)nc2n1	?	?	12%	1	4%	-4%	-5	-10%
Cc1cccc(NC(=O)c2ccccc2NC(=O)c2ccco2)c1	-10%	-6%	7%	-2	1%	5%	-2	-25%

Of the compounds above, 6 contain an aryl thioether with sulfur outside any ring.
SMILES	Vif-A3F inh	Vif-APOBEC3G blk	TrxR1 substrate	PI4K2A inh	mIDH1 inhibitor	GRP78 ERSR act	LDHA inh	USP1-UAF1 inh
CCCN(CCC)CCSc1nc(O)c(C(C)C)c(=O)[nH]1	-1%	4%	-8%	0	3%	-1%	2	-28%
O=C(CSc1ncnc2ccccc12)Nc1cccc(S(=O)(=O)N2CCCC2)c1	0%	2%	-5%[57.1 µM]	0	-9%	-2%	-19	-14%
N#Cc1c(N)nc(Sc2ccc(Cl)cc2)c(C#N)c1-c1ccccc1Cl	-23%	-45%	-24%[57.1 µM]	0	-8%	-4%	0	-9%
Cc1cc(NC(=O)CSc2ncc(C(=O)Nc3ccc(Cl)cc3)c(=O)n2C)no1	4%	-5%	2%[57.1 µM]	-1	-22%	0%	-10	-32%
O=C(CSc1nccn1Cc1ccccc1)NCc1ccccc1Cl	4%	-6%	-1%[57.1 µM]	7	6%	-5%	4	-29%
CC(C)c1c(O)nc(SCCN(C)C)[nH]c1=O	-4%	1%	-6%	1	16%	-3%	-5	-24%

Next results follow:
SMILES	Vif-A3F inh	Vif-APOBEC3G blk	TrxR1 substrate	PI4K2A inh	mIDH1 inhibitor	GRP78 ERSR act	LDHA inh	USP1-UAF1 inh
CCC(=O)Nc1ccc(-c2nnc3c4ccccc4c(C)nn23)cc1	1%	1%	-1%	-2	18%	-1%	2	3%
Cc1ccccc1Cn1c(=O)n(Cc2ccco2)c(=O)c2ccccc21	-17%	-18%	8%[57.1 µM]	-4	2%	4%	-5	3%
COC(=O)c1sc2nc(N)c(C#N)cc2c1N	-4%	-18%	-5%	70	13%	0%	2	3%
Cc1ccc(OCc2cc(=O)n3c4c(sc3n2)CCCC4)cc1C	4%	3%	-7%	-1	0%	-1%	-8	-9%
CCOC(=O)c1cnc2ccccc2c1Nc1cccc(C(=O)O)c1	-5%	-1%	-3%[57.1 µM]	2	-6%	-2%	-10	-12%
Cc1cc(C)c2nc(SCC(=O)Nc3cc(C)on3)c(C#N)cc2c1	?	-2%	13%	-5	7%	-4%	2	?
O=c1c2ccccc2n(Cc2ccc(Cl)cc2)c(=O)n1Cc1ccco1	1%	-1%	-8%	-3	3%	-7%	2	-5%
COc1ccc(NC(=O)c2cc3c([nH]c2=O)CC(c2ccccc2)CC3=O)cc1 (stereo unspecified)	1%	3%	7%[57.1 µM]	1	-11%	-2%	-3	13%
COc1ccc2cc(C(=O)COC(=O)COc3ccc4c(C)cc(=O)oc4c3)ccc2c1	?	1%	57%[activator]	-1	-5%	-7%	-2	0%
CCCOc1ccc(CNC(=O)Cn2ncn3c(cc4sc(CC)cc43)c2=O)cc1	1%	-4%	2%	3	-2%	-4%	-5	-24%
COc1ccccc1C(=O)NC1(C(F)(F)F)C(=O)Nc2c1c(=O)[nH]c(=O)n2-c1ccccc1 (stereo unspecified)	-1%	-4%	-5%	-6	-4%	-3%	-3	-23%
CCOc1ccccc1NC(=O)c1sc2ncn(CC(=O)N3CCOCC3)c(=O)c2c1C	-13%	-3%	0%	0	-2%	-2%	-14	-15%
COc1ccc(OC)c(NC(=O)CSc2ccnc(=O)[nH]2)c1	0%	-5%	5%[57.1 µM]	-16	22%	-3%	-3	-23%
COc1ccc(CNC(=O)c2ccc3c(c2)N=C(C)c2c(C)ccc(C)c2S3)cc1	-6%	?	-5%	-7	-5%	-3%	-4	-35%
Cc1ccc(C(NC(=O)Cc2cccs2)C(=O)Nc2ccc(C(C)C)cc2)cc1 (stereo unspecified)	2%	-5%	1%	1	13%	-2%	-1	-2%

2 of the compounds above, in CSV form.
Compound,Vif-A3F inh,Vif-APOBEC3G blk,TrxR1 substrate,PI4K2A inh,mIDH1 inhibitor,GRP78 ERSR act,LDHA inh,USP1-UAF1 inh
Cc1cc(=O)n2nc(N3CCCC3C(=O)Nc3cccc(Cl)c3C)sc2n1 (stereo unspecified),-3%,-8%,6%[57.1 µM],-1,11%,-1%,2,-16%
CCOC(=O)N1CCN(C(=O)c2cc(-c3ccc(OCC)cc3)nc3ccccc23)CC1,-4%,?,104%[activator],5,-5%,3%,-13,-12%

(list continues)
SMILES	Vif-A3F inh	Vif-APOBEC3G blk	TrxR1 substrate	PI4K2A inh	mIDH1 inhibitor	GRP78 ERSR act	LDHA inh	USP1-UAF1 inh
CC(=NCCCn1ccnc1)c1c(C)[nH]n(-c2ccc([N+](=O)[O-])cc2)c1=O	9%	-4%	4%[57.1 µM]	-6	2%	-2%	-7	-4%
Cc1cccn2c(=O)c3cc(C(=O)NCC4CCCO4)c(=N)n(C4CCCC4)c3nc12 (stereo unspecified)	-13%	0%	832%[activator]	5	2%	3%	-9	-9%
Cn1c(=O)c2c(nc(Cl)n2Cc2ccc(Cl)c(Cl)c2)n(C)c1=O	2%	1%	-13%	0	7%	-3%	1	-15%
CCc1cc2c(cc3c(=O)n(CC(=O)NC4CCC(C)CC4)ncn32)s1 (stereo unspecified)	-4%	-5%	10%	-1	-8%	-1%	-10	-14%
O=C(COC(=O)c1c(Cl)cccc1Cl)Nc1cccc(S(=O)(=O)NC2=NCCCCC2)c1	8%	-6%	0%	-3	-8%	-5%	-2	-24%
CCN(CC)C(=O)CSc1nnc(-c2cc3ccccc3cc2O)n1CC	-4%	1%	0%[57.1 µM]	2	5%	-1%	22	-8%
O=C(c1cc(-c2ccccn2)nc2ccc(Br)cc12)N1CCN(S(=O)(=O)c2ccccc2)CC1	?	-8%	2%[57.1 µM]	2	3%	-1%	-10	?
Cc1ccc(-c2cc(C(=O)Nc3ccc4c(c3)OCCO4)c3ccccc3n2)cc1	-2%	0%	-10%	-11	7%	2%	3	?
CCOC(=O)c1c(NC(=O)CSc2nnc(C)s2)sc2c1CCC(C)C2 (stereo unspecified)	-1%	-7%	1%[57.1 µM]	-10	4%	1%	3	-11%
O=C(N/N=C/c1ccc2c(c1)OCO2)c1ccc(NS(=O)(=O)c2cccs2)cc1	-12%	3%	3%[57.1 µM]	8	-14%	5%	-8	-11%
N#CCSc1nc2ccccc2c(=O)n1-c1ccccc1	-8%	2%	-5%	4	1%	0%	-1	-4%
Cc1ccc(S(=O)(=O)NCC(=O)OCC(=O)Nc2cccc(S(=O)(=O)NC3=NCCCCC3)c2)cc1	-16%	2%	-6%	2	2%	-4%	-3	-1%
COc1cc(Nc2nc3c(S(=O)(=O)c4cccc(Cl)c4)nnn3c3ccsc23)cc(OC)c1	5%	4%	13%	-1	-1%	-2%	-4	-24%
COc1cc2[nH]c(=S)n(Cc3cccs3)c(=O)c2cc1OC	9%	1%	-1%[57.1 µM]	5	0%	-1%	-4	-14%
Cc1cc(N2C(=O)C(O)=C(C(=O)c3ccco3)C2c2ccc(Cl)cc2)no1 (stereo unspecified)	-3%	7%	1%	0	10%	-4%	1	-23%
CCOC(=O)c1cccc(NC(=O)c2cc3c(=O)n(Cc4ccccc4)ccc3nc2C)c1	-7%	1%	4%[57.1 µM]	-3	0%	-2%	-2	-15%
CCc1ccccc1NC(=O)CSc1nncn2c1cc1oc(C)cc12	1%	0%	-3%	-8	-10%	-1%	-5	-12%
